# UCH37 DUB inh = inhibitors of human UCH37 deubiquitinase, primary screen, biochemical, Ub-AMC cleavage, fluorescence; inhibition, % (concentration not given with the values); purified proteasome/UCH37; actives 0.33% (n = 330,000); Ubiquitin carboxyl-terminal hydrolase isozyme L5 (Homo sapiens), Q9Y5K5;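 active = mean of two replicates above 20%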;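 also: 0% = compound-free wells with enzyme and 100% = wells lacking proteasome; stock transfer was 100 nL into about 20 µL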
# Target sequence (Q9Y5K5 whole entry, looked up): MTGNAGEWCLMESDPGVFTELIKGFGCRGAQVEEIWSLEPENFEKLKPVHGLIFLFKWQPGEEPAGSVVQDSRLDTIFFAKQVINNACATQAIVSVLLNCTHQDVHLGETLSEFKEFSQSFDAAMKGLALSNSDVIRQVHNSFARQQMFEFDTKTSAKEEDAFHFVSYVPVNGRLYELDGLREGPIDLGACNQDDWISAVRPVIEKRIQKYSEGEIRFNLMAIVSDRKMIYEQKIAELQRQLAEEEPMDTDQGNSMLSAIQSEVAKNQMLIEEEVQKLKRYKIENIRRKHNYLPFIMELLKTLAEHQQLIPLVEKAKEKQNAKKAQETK
#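 Material: Human UCH37 enzyme supplied as purified proteasome complex | Schedule: 30 min preincubation with enzyme, 25 min cleavage at room temperature | Detection: AMC fluorescence 355/460 nm | Measure: % inhibition of Ub-AMC cleavage fluorescence | Controls: Wells without proteasome as full block, compound-free enzyme plus substrate as uninhibited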
# HNF4A DNA FP = change in binding of human HNF4A to DNA, primary screen, biochemical, fluorescence polarization, FITC-DNA | Hepatocyte nuclear factor 4-alpha (Homo sapiens), P41235 | 1 h | activity change, % at 10 µM | actives 0.3% (n = 360,000); in the data active = activity change above about 30%, passing the limit was not always enough;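 also: controls were the assay level and a saturating level of protein; the project sought stronger binding though the title names inhibitors; some compounds called inactive have numbers as strong as hits; positive values seem to mean higher polarization but the record does not say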
# E coli growth = E. coli growth inhibition, primary screen, OD600 | Escherichia coli growth, 23 h; hits give low values | OD600 absorbance (no concentration beside the values) | actives 0.21% (n = 330,000);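 active = OD600 absorbance below the run mean of sample wells minus 3.6 SD, in any replicate, cut at about 0.56 in these data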;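 also: stock transfer was 300 nL into about 60 µL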
# B2AR ag = beta2AR agonists driving receptor internalization, primary screen, cell-based, FAP fluorogen, flow cytometry; Beta-2 adrenergic receptor (Homo sapiens), P07550; Am2.2-beta2AR cells; reference of the scale not given here; response, % (test concentration not listed); actives 0.43% (n = 340,000); AID 504454, 2011;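 active = response above a set limit, near 3 SD of response in nonfluorescent compounds, cut at about 42% in these data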;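 also: stock transfer was 100 nL into about 11 µL; a reference agonist was the positive control; negative values mostly stem from fluorescent compounds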
# Target sequence (P07550 whole entry, looked up): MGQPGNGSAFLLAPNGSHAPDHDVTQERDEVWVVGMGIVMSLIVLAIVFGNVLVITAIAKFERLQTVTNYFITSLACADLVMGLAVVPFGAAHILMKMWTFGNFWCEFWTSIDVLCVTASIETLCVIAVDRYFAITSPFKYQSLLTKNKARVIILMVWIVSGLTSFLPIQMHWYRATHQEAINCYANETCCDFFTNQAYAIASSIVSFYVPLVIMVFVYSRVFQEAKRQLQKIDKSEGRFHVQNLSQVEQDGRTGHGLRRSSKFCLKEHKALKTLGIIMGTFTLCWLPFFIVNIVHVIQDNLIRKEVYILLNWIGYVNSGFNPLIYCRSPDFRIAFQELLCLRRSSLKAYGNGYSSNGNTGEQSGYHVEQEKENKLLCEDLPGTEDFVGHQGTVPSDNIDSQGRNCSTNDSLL
# ALR H2O2 inh = inhibitors of human ALR sulfhydryl oxidase, primary screen, biochemical, H2O2 detection, HRP-luminol luminescence, single point; FAD-linked sulfhydryl oxidase ALR (Homo sapiens), P55789; purified ALR, DTT oxidation; inhibition, % (concentration not given with the values); actives 3.8% (n = 290,000); AID 485317, 2010;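 active = mean and each replicate at 75% or more; inconclusive = only one of the two met; inactive = neither met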;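 also: stock transfer was 7.5 nL into about 7.5 µL; 0% = neutral wells and 100% = wells with inactivated enzyme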
# Target sequence (P55789 whole entry, looked up): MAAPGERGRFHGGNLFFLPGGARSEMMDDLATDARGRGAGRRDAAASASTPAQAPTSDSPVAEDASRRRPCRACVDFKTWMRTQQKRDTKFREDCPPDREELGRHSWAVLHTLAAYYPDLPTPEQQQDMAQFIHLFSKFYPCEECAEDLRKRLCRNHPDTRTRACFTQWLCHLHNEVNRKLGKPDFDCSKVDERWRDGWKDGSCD
# FGF22 binding = binders of human FGF22 protein, primary screen, FGF22 synaptogenesis inhibitor project, biophysical, thermal shift, single point | Fibroblast growth factor 22 (Homo sapiens), Q9HCT0 | recombinant FGF22 thermal shift, SYPRO orange fluorescence; percent of sucrose octasulfate shift, DMSO zero | calls only at 9.99 µM | actives 1.5% (n = 340,000) | AID 651658, 2012;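 active = melting point raised past a set limit in the mean and every replicate; inconclusive = no clear call; three in four hits are not shown here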
# LANA-H2B inh = blockers of LANA interaction with H2A/H2B – biochemical, FP readout, HTS, primary screen; Protein LANA1 (Human herpesvirus 8 type P (isolate GK18)), Q9QR71; cell-free LANA-H2A/H2B peptide, fluorescence polarization; inhibition, % (test concentration not listed); actives 0.6% (n = 320,000); AID 2629, 2010; in the data active = inhibition mostly above about 10%, no sharp cut-off; inactive = mostly below about 6.7%;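 also: stock transfer was 7.5 nL into about 10 µL; 0% = median of vehicle wells and 100% = median of positive control wells; one replicate is shown; the record names a cut of 25% in any replicate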
# Numbers without * were called inactive; i = inactive; ? = inconclusive; · = not tested or not shown; & = joins results of further samples.
nr	canonical_smiles	UCH37 DUB inh	HNF4A DNA FP	E coli growth	B2AR ag	ALR H2O2 inh	FGF22 binding	LANA-H2B inh
1	Cc1nn(C(C)(C)C)c(OC(=O)c2ccc3c(c2)OCO3)c1S(=O)(=O)c1ccccc1	2.6	0.0	0.683	8.5	10.4	·	0.1
2	CCN(CC)CCOC(=O)C(c1ccccc1)C1CCCCC1 (centres undefined)	-0.5	1.9	0.669	-0.6	·	i	·
3	CC1CCCN(S(=O)(=O)c2ccc(NC(=O)CN3CCN(C)CC3)cc2)C1 (centres undefined)	1.3	6.5	0.711	2.9	-5.2	·	-2.7
4	COc1cccc(CN2CCNC(=O)C2CC(=O)NC2Cc3ccccc3C2)c1 (centres undefined)	0.4	1.7	0.699	-1.1	-2.5	i	4.8
5	CC(OCC(O)CN(C)Cc1nc2ccccc2c(=O)[nH]1)c1ccc(Cl)cc1 (centres undefined)	0.6	0.0	0.691	-4.3	-6.5	i	-5.6
6	Nc1ccccc1C(=O)N(Cc1ccccc1)Cc1ccccc1	-1.4	1.6	0.748	2.9	·	·	-1.3
7	Cc1ccc(NC(=O)c2noc3c2CCc2ccccc2-3)cc1	2.5	2.2	0.693	0.8	-17.4	·	-0.2
8	COc1ccc(NS(=O)(=O)c2c(C)n(C)c(=O)n(C)c2=O)cc1	4.4	-3.9	0.821	-2.7	·	i	4.5
9	COc1cc(C)ccc1OCC(=O)NC1CCCCCC1	2.8	-1.9	0.721	0.9	·	i	3.8
10	O=C(C[n+]1cc(-c2ccc(Cl)cc2)n2c1CCC2)Nc1nc(-c2ccc(F)cc2)cs1	8.3	0.9	0.506	-4.2	-9.9	i	-5.4
11	COc1ccc(NC(=O)COC(=O)CCSc2ccccc2)cc1	-0.6	1.9	0.634	1.7	0.1	i	-2.3
12	CCCCCCSc1ccc(-c2nc3ccc(C)cn3c2NCc2ccccc2)cc1OC	i	9.0&6.1	0.782	16.5	·	i	-0.3
13	Cc1nnc2n1N=CC=C(C(C)(C)C)S2	1.6	-0.3	0.659	-1.4	-9.0	·	6.6
14	O=c1[nH]c2ccccc2c2ccc(Cl)cc12	·	-1.1	·	-10.5	·	i	·
15	Cc1cc(C)c(CSc2ncnc3nc[nH]c23)c(C)c1	0.5	2.6	0.729	-5.8	·	i	0.7
16	CC(C)c1ccc(NC(=O)COC(=O)CSc2nnc(N)s2)cc1	4.7	0.3	0.648	-13.3	-37.4	·	-3.7
17	CCCNS(=O)(=O)c1ccc2c(c1)n(C)c(=O)n2C	2.5	-7.8	0.641	1.8	-4.3	i	-1.9
18	CCN(C[C@H]1N[C@@](C)(C(=O)OC)[C@H]2C(=O)N(C)C(=O)[C@@H]12)S(=O)(=O)c1ccc(F)cc1	1.6	3.1	0.68	-0.4	·	i	0.8
19	COc1cc2cc(CN(CCc3cccc(C)c3)C(=S)NCCCN3CCOCC3)c(=O)[nH]c2cc1OC	-75.8	0.7	0.693	5.0	-26.1	i	4.1
20	COc1ccccc1OCCNC(=O)c1ccc(C)c(S(=O)(=O)N2CCOCC2)c1	6.4	2.5	0.643	0.3	-2.4	·	-3.9
21	O=C(/C=C/c1ccccc1)N1CCC(c2ccccc2)C1 (centres undefined)	1.7	3.7	0.642	-7.9	-10.4	i	5.9
22	Cn1ccnc1SCC(=O)Nc1nc2ccccc2s1	-2.2	1.7	0.663	-10.7	?	i	-1.6
23	O=C(NC(=S)NC(=O)c1ccccc1F)c1ccccc1F	2.3	2.9	0.674	0.1	89.2*	i	-1.5
24	Cc1ccc(Cn2c(Cc3ccccc3)nc3ccccc32)cc1	1.4	1.5	0.688	1.6	·	·	0.8
25	O=C(COC(=O)CCCSc1nc2ccccc2[nH]1)Nc1ccc(Oc2ccccc2)cc1	5.7	-3.7	0.701	-22.7	2.0	i	-4.7
26	COc1ccc(OCC(=O)Nc2ccc3c(c2)CCC3)cc1	2.9	1.3	0.693	1.8	-0.5	i	-5.2
27	CCO[C@H]1OC(C(=O)N2CCN(Cc3ccccc3)CC2)=C[C@@H](c2coc3ccccc3c2=O)[C@@H]1CCCO	2.9	-0.5	·	-13.4	-12.9	i	0.4
28	N#Cc1nc(Cc2ccccc2)oc1N1CCN(c2cccc(Cl)c2)CC1	3.0	-3.0	0.757	-0.7	-7.3	i	-3.6
29	COC(=O)C1C(O)=C(C=NCC(C)N=CC2=C(O)C(C(=O)OC)C(C)(C)CC2=O)C(=O)CC1(C)C (centres undefined)	0.8	-4.9	0.71	18.9	-8.3	·	-0.6
30	COc1ccc2c(c1)c(C(=O)N/N=C/c1cccc(Br)c1)c(C)n2C	·	4.5	·	6.2	3.4	i	-0.7
31	CCOCCCn1c(=NC(=O)c2cccs2)c(C#N)cc2c(=O)n3cccc(C)c3nc21	-199.5	1.3	0.625	14.6	-3.6	·	27.9*
32	Cc1cc(=O)[nH]c(N/N=C/c2ccc(Br)s2)n1	·	-2.1	·	-4.4	7.5	i	3.4
33	O=C1CCCc2c1[nH]c1ccc(CN3CCCCC3)cc21	-53.0	-2.0	0.721	7.7	·	i	2.6
34	CCCCn1c(SC(C)C(=O)c2ccc(OC)cc2)nc2cc(S(N)(=O)=O)ccc21 (centres undefined)	0.8	4.6	0.654	-7.8	1.1	·	-0.3
35	Cc1nc2scc(-c3ccc(C(C)(C)C)cc3)c2c(=O)n1N	2.0	7.4	0.674	-3.2	1.9	·	-2.6
36	O=C(CN1C(=O)NC2(CCCC2)C1=O)N1CCN(S(=O)(=O)c2ccc(Cl)cc2)CC1	4.7	-1.9	0.673	-7.4	-1.6	i	-4.3
37	CCn1nnc(NC(=O)c2ccc(C(C)(C)C)cc2)n1	1.5	3.8	0.683	-4.5	-4.3	·	2.6
38	COc1ccccc1N1C(=O)C2C(c3ccc(F)cc3)NN(C(=O)c3ccc(C)cc3)C2C1=O (centres undefined)	·	-4.6	·	-1.4	-4.6	i	-7.3
39	O=C(O)c1ccc(NS(=O)(=O)c2ccc3c(c2)C(=O)c2ccccc2C3=O)cc1	9.9	4.3	0.673	5.8	-20.6	i	-3.6
40	CN(CC(=O)Nc1ccc(F)cc1)C(=O)C1CC(=O)N(Cc2ccccc2)C1 (centres undefined)	1.3	2.4	0.712	5.9	-0.3	i	2.3
41	CCN(Cc1ccccc1)C(=O)c1ccc(C(=O)N(CC)Cc2ccccc2)cc1	0.0	6.6	0.681	0.6	-8.1	i	-5.5
42	CC(=O)Nc1sc(C)c(C)c1C(=O)OCC(=O)NC(C)c1ccccc1 (centres undefined)	-7.5	-1.8	0.707	4.3	·	i	·
43	CCOC(=O)c1sc(NC(=O)COC(=O)c2ccco2)nc1C	4.2	-1.9	0.687	1.3	-14.7	·	-0.1
44	COc1ccccc1/C=C/C(=O)OCC(=O)Nc1ccc2c(c1)OCO2	-5.3	1.5	0.734	2.3	-6.9	i	-7.1
45	O=C(NN1CCOCC1)c1cc(-c2ccc(Br)cc2)nc2ccccc12	-1.4	-1.6	0.654	-5.7	-9.9	·	-0.1
46	CCCn1c(N)c(C(=O)CSc2nnnn2-c2ccc(O)cc2)c(=O)n(C)c1=O	-3.1	-1.5	0.742	2.5	-4.3	·	-0.3
47	COC(=O)CC1C(=O)NCCN1C(=S)Nc1ccc(F)cc1 (centres undefined)	2.6	0.3	0.698	8.4	0.0	i	7.1
48	CS/C(=N\N(C)C(N)=O)c1ccccc1	·	1.4	·	-2.7	-2.3	·	0.6
49	CC(NC(=O)CCNS(=O)(=O)c1cccc2nsnc12)c1ccccc1 (centres undefined)	1.8	-1.8	0.625	-8.9	-18.3	i	1.3
50	Cc1cc(Oc2ccc(C)c(Cl)c2)nc(SCC(=O)c2ccccc2)n1	·	3.2	·	0.9	6.0	i	16.2*
51	CC(NC(=O)COC(=O)c1ccc2c(c1)OCO2)c1ccccc1 (centres undefined)	0.5	1.4	0.701	13.3	-9.2	i	0.5
52	Cc1cc(C)nc(SCc2nnc(SCC(=O)NCc3ccco3)n2-c2ccccc2)n1	0.7	3.8	0.723	-15.8	·	·	-4.2
53	c1ccc(-c2ccccc2OCCCN2CCCCCC2)cc1	2.8	1.9	0.62	12.3	-6.7	i	84.2*
54	O=C(Nc1cccc(-c2cn3cccnc3n2)c1)c1ccc(Br)o1	-440.7	-0.8	0.659	-2.1	0.0	·	2.0
55	O=C(Cn1cc(S(=O)(=O)Cc2cccc([N+](=O)[O-])c2)c2ccccc21)N1CCOCC1	1.5	-3.0	0.745	0.3	-3.6	i	1.5
56	O=c1[nH]c(=O)c2ncc(-c3ccc(Cl)cc3)nc2[nH]1	-121.8	·	0.719	·	2.2	·	-2.6
57	COc1ccc(-n2nc(C(=O)NCC(=O)N3CCCCCC3)c3ccccc3c2=O)cc1Cl	4.2	-0.7	0.655	-0.1	-1.1	i	4.2
58	O=C1CCN(Cc2nnnn2CC2CCCO2)c2ccccc2N1 (centres undefined)	3.6	0.1	0.683	42.2*	3.0	·	-4.0
59	CC(C)c1cc(-c2cc(-c3ccccc3)on2)nc(NC2CCCC2)n1	-18.2	0.4	0.646	-1.3	1.0	i	13.6
60	Cc1nc(NNC(=O)c2ccc([N+](=O)[O-])cc2)cc(-c2ccccc2)n1	1.4	-1.6	0.68	2.6	-4.1	i	-3.3

# New compounds follow:
nr	canonical_smiles	UCH37 DUB inh	HNF4A DNA FP	E coli growth	B2AR ag	ALR H2O2 inh	FGF22 binding	LANA-H2B inh
61	COc1cc(OC)cc(-c2sc3ccc(OC)cc3c2-c2ccc3cc[nH]c3c2)c1	-1.9	3.3	0.702	3.0	0.6	i	-0.7
62	COc1ccc(OC)c(-c2cc(C3CCN(c4cc(Cl)nc(N)n4)CC3)[nH]n2)c1	2.2	-5.1	0.635	18.6	0.0	·	0.8
63	O=C(Nc1sc2c(c1C(=O)NC1CC1)CCCCCC2)c1ccco1	-91.7	-1.5	0.712	-13.2	0.9	·	-3.6
64	CCCSc1nnc(NC(=O)CSc2nc3[nH]c(=O)cc(O)c3s2)s1	9.1	-0.8	0.673	-1.6	5.9	i	·
65	COc1cc(S(=O)(=O)N2CCN(C(=O)c3ccco3)CC2)ccc1Cl	2.0	1.1	0.653	-3.4	·	i	0.7
66	Cc1ccc(S(=O)(=O)N(C)Cc2ccc(C(=O)NN=C(CC(C)C)CC(C)C)cc2)cc1	0.5	2.2	0.686	0.5	·	i	·
67	CCn1c(N2CCN(CC(=O)c3c(C)n(C)c4ccc(OC)cc34)CC2)nc2c1c(=O)[nH]c(=O)n2C	·	2.2	·	-0.6	-9.2	i	-4.2
68	COC(=O)c1cc(S(=O)(=O)NCC2CCN(Cc3cccc(F)c3)CC2)c[nH]1	0.6	-0.3	0.714	-2.4	-0.8	i	0.9
69	CCCNC(=O)Cn1nc(C(F)(F)F)cc1C	1.2	2.9	0.71	6.4	·	i	4.4
70	CCOc1ccc2nc(NC(=O)CSc3nc4ccccc4c(=O)n3Cc3ccco3)sc2c1	2.2	-7.7	0.761	11.3	-1.5	·	-4.1
71	Cc1ccc2nc(C(=O)O)c(C(=O)O)nc2c1	4.4	-1.0	0.67	8.3	-1.2	·	-1.6

# 2 of the compounds above, with two lines to a compound:
# Each structure is followed by: UCH37 DUB inh	HNF4A DNA FP	E coli growth	B2AR ag	ALR H2O2 inh	FGF22 binding	LANA-H2B inh
2. CCN(CC)CCOC(=O)C(c1ccccc1)C1CCCCC1 (centres undefined)
    -0.5	1.9	0.669	-0.6	·	i	·
56. O=c1[nH]c(=O)c2ncc(-c3ccc(Cl)cc3)nc2[nH]1
    -121.8	·	0.719	·	2.2	·	-2.6

# These rows are one share of the data; count on the stated rates, not on these rows.
